Bioassay records deposited in PubChem BioAssay by several laboratories.
Env fusion inh – inhibitors of HIV-1 Env-driven cell-cell fusion, primary screen, HeLa-JRFL effector, CEM21 target cells, luciferase. inhibition, % at 12.3 µM. actives 1.1% (n = 360,000);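 active = mean replicate inhibition score of at least 50 and every replicate individually at or above 50; inconclusive = only one of the two criteria met; inactive = mean below 50 and not all replicates reaching 50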;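 note: 0% = plate neutral controls and 100% = maraviroc near 300 nM; one replicate is shown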
CSC inhib – cancer stem cell viability inhibitors, primary screen, luminescence | cancer stem cell-like cells viability | inhibition, % at 7.5 µM | actives 1.1% (n = 300,000);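 active = mean at 75% or more and at least half the replicates too; inconclusive = mean and replicates disagree; tested in HMLE shEcad cells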;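 note: 0% = median of negative and 100% = median of positive control wells; the first replicate is given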
eIF4H FP inh – human eIF4H binding inhibitors, primary screen, translation initiation inhibitor project, biochemical, uHTS, fluorescence polarization; Eukaryotic translation initiation factor 4H (Homo sapiens), Q15056; eIF4H fluorescence polarization binding assay; inhibition, % at 35 µM; actives 0.94% (n = 290,000); AID 2012, 2009;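 active = 50% or more with normal probe brightness, or confirmed in later tests; inconclusive = above 50% with abnormal brightness, or retests that disagree; inactive = below 50% or failed in later tests; about a fifth of its hits are not listed in these tables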;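 note: calls also rest on retests at 20 µM and on dose response follow-up; 0% = protein and probe with vehicle and 100% = probe without protein; strong numbers were not always called active; many hits fall short of the cut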
UUG fidelity – modulators of yeast start codon fidelity, primary screen, whole organism, S. cerevisiae, single point, plate reader. actives 0.13% (n = 350,000). S. cerevisiae UUG-firefly luciferase reporter, luminescence/redox ratio. AID 602363, 2012. activity score, % at 18.7 µM;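 active = replicate mean at a twofold rise or more, about +100% in these data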;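 note: firefly luciferase made from a UUG start codon reports start codon fidelity; reporter light over untreated wells divided by growth signal over untreated wells; some hits fall short of that in this replicate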
PABP polyA inh – PABP poly(A) RNA binding inhibitors, primary screen, biochemical, fluorescence polarization, uHTS; Polyadenylate-binding protein 1 (Homo sapiens), P11940; actives 1% (n = 290,000); inhibition, % at 35 µM; AID 2014, 2009;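 active = 50% or more with normal probe brightness, or confirmed in later tests; inconclusive = above 50% with abnormal brightness, or retests that disagree; inactive = below 50% or failed in later tests; about a fifth of its hits are not listed in these tables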;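 note: calls also rest on retests at 20 µM and on dose response follow-up; controls were probe without protein and protein plus probe with vehicle; some compounds called inactive have numbers as strong as hits; many hits fall short of the cut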
Target sequence (P11940 whole entry, looked up): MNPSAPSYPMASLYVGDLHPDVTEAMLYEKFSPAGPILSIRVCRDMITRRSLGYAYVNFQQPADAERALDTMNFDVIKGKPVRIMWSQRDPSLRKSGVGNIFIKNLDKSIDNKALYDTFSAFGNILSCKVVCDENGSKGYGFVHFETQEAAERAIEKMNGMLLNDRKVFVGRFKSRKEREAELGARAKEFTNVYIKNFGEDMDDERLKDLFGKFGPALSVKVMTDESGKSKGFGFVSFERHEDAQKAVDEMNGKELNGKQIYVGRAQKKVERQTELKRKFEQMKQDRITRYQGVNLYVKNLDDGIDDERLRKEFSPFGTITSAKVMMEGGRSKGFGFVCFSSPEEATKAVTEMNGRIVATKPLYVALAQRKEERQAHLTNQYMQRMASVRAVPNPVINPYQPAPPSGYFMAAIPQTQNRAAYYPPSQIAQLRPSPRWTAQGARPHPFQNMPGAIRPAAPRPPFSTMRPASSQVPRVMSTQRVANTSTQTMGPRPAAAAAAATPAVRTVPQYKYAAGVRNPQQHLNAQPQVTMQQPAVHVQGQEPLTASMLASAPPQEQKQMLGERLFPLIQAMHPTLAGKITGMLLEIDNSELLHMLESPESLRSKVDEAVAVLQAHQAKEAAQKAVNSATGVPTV
MT1-MMP act inh – blockers of MT1-MMP proenzyme processing, primary screen, HT1080 RFP-PRO-GFP cells, GFP/RFP fluorescence; Matrix metalloproteinase-14 (Homo sapiens), P50281; GFP/RFP ratio fluorescence, overnight; percent of plate control window, DMSO zero; GFP/RFP ratio change, % at 20 µM; actives 0.061% (n = 360,000); AID 651647, 2012;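 active = GFP/RFP ratio change of at least 30% with cell ATP level not reduced by more than half and red fluorescence within 50% of control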; note: strong numbers were not always called active
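Assay system: HT1080 RFP-PRO-GFP cells. Benchmarks: DMSO vehicle wells and RFP-L50D-GFP reporter cell wells. Times: overnight cell settling, then overnight compound exposure, 37 °C, 5% CO2. Compound: 20 µM single dose, 1% DMSO. Read-out basis: GFP/RFP fluorescence ratio.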
Rce1 inh – yeast Rce1p protease inhibitors, primary screen, biochemical, fluorescence, cell-free homogeneous; CAAX prenyl protease 2 (Saccharomyces cerevisiae (strain ATCC 204508 / S288c)), Q03530; yeast membranes, quenched prenylated peptide cleavage fluorescence; calls only; actives 0.27% (n = 290,000);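 active = fall in fluorescence gain of 50% or more versus controls, with final raw signal at or below 3038400; inconclusive = same 50% fall but final raw signal above 3038400; inactive = fall in fluorescence gain under 50%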;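 note: plate controls were neutral control wells for no effect and wells lacking membranes for full effect; tested at 10 µM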
Target sequence (Q03530 whole entry, looked up): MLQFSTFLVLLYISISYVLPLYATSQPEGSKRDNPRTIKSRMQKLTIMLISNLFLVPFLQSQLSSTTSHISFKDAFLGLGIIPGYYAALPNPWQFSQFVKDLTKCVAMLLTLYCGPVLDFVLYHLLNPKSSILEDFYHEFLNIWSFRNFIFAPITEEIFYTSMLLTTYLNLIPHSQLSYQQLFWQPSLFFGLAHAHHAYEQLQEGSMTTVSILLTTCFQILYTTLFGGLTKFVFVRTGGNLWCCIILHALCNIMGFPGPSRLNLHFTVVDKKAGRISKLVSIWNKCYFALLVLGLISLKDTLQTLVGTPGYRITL
eIF4H FP inh retest – also measured in eIF4H FP inh; calls as there; inhibition, %; compound at 20 µM; confirmation average;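 mean of two retest wells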
PABP polyA inh retest – further read-out of PABP polyA inh, marked with its call; inhibition, %; compound at 20 µM; confirmation repeats;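 mean of two retest wells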
MT1-MMP act inh RFP – also measured in MT1-MMP act inh; calls as there; RFP signal change, %; measured here: RFP expression control read;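 0 = vehicle wells; hits needed this value within 50% of zero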
* hit, by the source's call; i = inactive; ? = inconclusive; / = not tested or not shown.

SMILES	Env fusion inh	CSC inhib	eIF4H FP inh	UUG fidelity	PABP polyA inh	MT1-MMP act inh	MT1-MMP act inh RFP	Rce1 inh	others
COc1cccc(-c2nc(CS(=O)(=O)CC(=O)NCc3ccc(Cl)cc3)c(C)o2)c1	17	-9	-16	2	-14	1	0	i
Cc1ccc(C2=NNC(=Nc3ccc(F)cc3)SC2)cc1	-21	/	-6	/	-11	-3	-2	/
COc1ccc(-c2cc3ccccc3n2CC(O)CN2CCN(CCO)CC2)cc1 (stereo not given)	-4	-10	5	8	4	-3	3	i
Cc1cc(=O)c2ccccc2n1CC(=O)NCc1ccccc1	/	6	-9	-1	-9	4	-18	i
COc1ccc(OCC(=O)Sc2ccc(C)cc2)cc1	/	0	2	-16	3	1	-1	i
O=C(CN1C(=O)CCC1=O)Nc1cccc(NC(=O)CN2C(=O)CCC2=O)c1	-1	15	-4	/	-3	-1	1	i
S=C(NC1CCCCC1)N(CCc1ccccc1)CCc1ccccc1	20	33	-17	/	3	-4	-5	i
Cc1ccc(S(=O)(=O)N2CCN(C(=O)CSCc3ccc(C(C)C)cc3)CC2)cc1	17	11	/	-14	/	0	-17	/
C/C(=N\Nc1ccc(Cl)c(C(=O)O)c1)c1cccs1	-21	3	25	-7	11	-3	3	i
Cn1c2ccccc2c2c(C(=O)N3CCN(c4ccccn4)CC3)cn(C3CCCC3)c(=O)c21	?	18	15	16	0	3	-4	i
COc1cc(/C=N/NC(=O)Cc2nnc(N)s2)cc(OC)c1OC	11	1	0	/	0	-2	-2	i
CCOC(=O)c1ccc(NC(=O)C(C)NS(=O)(=O)c2ccc(OC)cc2)cc1 (stereo not given)	-5	-14	6	-11	-2	-3	1	i
Cc1cc([N+](=O)[O-])ccc1NC(=S)NC(=O)C(c1ccccc1)c1ccccc1	/	52	-8	-6	-1	-30	-30	i
C/C(=N\O)C(C)(C)Nc1ccc(Cl)cc1	2	-4	0	/	-6	3	-2	i
S=C1NNC2(NN1)C1CC3CC(C1)CC2C3	-35	/	-1	-22	-10	2	1	i
CC(=O)NCCOc1cccc2cccnc12	/	/	-24	-16	-1	-3	1	i
O=C(NCC1CC1)c1ccc(-c2cn[nH]c2)c2ccoc12	-50	/	/	-18	/	0	3	/
CCOC(=O)c1c(NC(=O)OC)sc(C(=O)N(CC)CC)c1C	-26	-2	-3	-2	-4	-1	2	i
COc1ccc(C(=O)CSc2n[nH]c(=O)n2Cc2ccco2)cc1	-12	-4	-5	/	-2	7	-1	i
CC(C)=CCN1CCN(Cc2nc(-c3ccccc3)cs2)CC1CCO (stereo not given)	10	27	9	/	5	2	-5	i

Pulled one by one from above:
SMILES	Env fusion inh	CSC inhib	eIF4H FP inh	UUG fidelity	PABP polyA inh	MT1-MMP act inh	MT1-MMP act inh RFP	Rce1 inh	others
CC(=O)NCCOc1cccc2cccnc12	/	/	-24	-16	-1	-3	1	i
CCOC(=O)c1ccc(NC(=O)C(C)NS(=O)(=O)c2ccc(OC)cc2)cc1 (stereo not given)	-5	-14	6	-11	-2	-3	1	i

(cont.)
SMILES	Env fusion inh	CSC inhib	eIF4H FP inh	UUG fidelity	PABP polyA inh	MT1-MMP act inh	MT1-MMP act inh RFP	Rce1 inh	others
CC1CCCCN1CCNC(=O)CCc1nnc2n(Cc3ccccc3)c(=O)c3ccccc3n12 (stereo not given)	-10	/	1	-3	1	-3	2	i
Cn1nnnc1SCC(=O)Nc1cc(S(=O)(=O)N2CCCCC2)ccc1Cl	6	-21	/	-10	/	2	0	/
COc1ccc(CCNC(=O)CCc2ccc(OC)cc2)cc1	15	-6	-4	-17	4	0	3	i
O=C(CSc1nnc(Nc2ccccc2F)s1)NC1CC1	-19	/	/	17	/	0	0	/
CCc1nnc(NC(=O)CSc2nncc(=O)n2N)s1	/	-4	12	-12	4	8	3	i
Cc1ccc(S(=O)(=O)N(C)CC(=O)NNC(=O)Cc2cccc(F)c2)cc1	/	7	/	-1	/	-1	-2	/
COc1cc2c(cc1NC(=O)c1cc(-c3ccccn3)nc3ccccc13)oc1ccccc12	9	28	-5	23	-6	2	1	i
OCc1cc(-c2ccc(Cl)c(Cl)c2)on1	15	-13	-8	/	-3	2	0	i
Cc1ccccc1OCCNc1ccc(C(F)(F)F)cc1[N+](=O)[O-]	/	23	-4	-4	-9	5	2	i
C[C@H](NC(=O)c1[nH]cnc1C(=O)Nc1ccc(CNC(=O)OC(C)(C)C)cc1)C(=O)OC(C)(C)C	47	51	1	2	0	4	-12	i
O=C(CSc1nc(C2CCCCC2)nc2ccccc12)NCc1ccco1	3	-4	-2	-11	-6	-4	-8	i
CCCCOc1ccc(N2C(=O)CC(NCc3ccncc3)C2=O)cc1 (stereo not given)	2	-16	9	-6	14	-6	2	i
COCC(C)NC(=O)c1cc(-c2cccc(OC)c2)on1 (stereo not given)	/	-12	-11	-20	-6	0	-2	i
CCOC(=O)C1Oc2ccccc2C(c2ccc(C)cc2)=C1C(=O)OC (stereo not given)	-9	/	/	-1	/	-2	-3	/
O=C(CCCc1nc2ccccc2s1)N1CCN(S(=O)(=O)c2cccs2)CC1	/	-6	-7	-18	-6	2	-9	i
N#Cc1c(-c2ccccc2)cc(-c2ccc3c(c2)OCO3)[nH]c1=O	5	-4	/	-8	/	-3	-2	/
COC(=O)c1ccc(CNC(=O)c2ccc(OCC(=O)N3CCOCC3)c(OC)c2)cc1	-10	-13	/	18	/	3	1	i
CCC1(CC)C(=O)C2=C3C1[C@H](C(=O)OC)C=C(C(=O)OC)C[C@H]3n1c(=O)n(C)c(=O)n1[C@H]2C (stereo not given in full)	-23	-10	/	3	/	2	0	i
CCCCN(C(=O)c1ccc(N(C)S(=O)(=O)c2ccc(C)cc2)cc1)c1c(N)n(CC(C)C)c(=O)[nH]c1=O	3	/	/	-13	/	-3	-3	/
Cc1ccc(-n2cc(CN3CCC(CO)(Cc4ccccc4)CC3)cn2)cc1	0	14	-6	/	3	/	/	i
Cc1ccc2c(c1)C1C3CCC(C3)C1S(=O)N2 (stereo not given)	11	-11	-3	/	-3	1	1	/
O=C1CC(=O)CC(c2ccccc2)C1	1	-3	-10	/	-3	-2	3	i
COc1ccc(NC2CCN(C3CC(=O)N(c4ccc(F)c(Cl)c4)C3=O)CC2)cc1 (stereo not given)	/	-8	-17	-5	-3	-1	-2	i
COc1cc(C2C(=O)N(C3CCCC3)CC(=O)N2Cc2ccco2)ccc1OC(C)C (stereo not given)	-14	-9	-5	-10	6	-1	0	i
Cn1c(=O)n(C)c2cc(NS(=O)(=O)c3ccc(C(C)(C)C)cc3)ccc21	30	-8	-7	/	-5	3	-21	i
CCC1(c2ccccc2)NC(=O)N(CC(=O)N(C)Cc2ccccc2)C1=O (stereo not given)	0	23	3	-7	-2	-1	2	i
CCN(CC)S(=O)(=O)c1cc(C(=O)Oc2ccccc2OC)ccc1OC	-4	2	-3	-10	2	-2	1	i
NC(=O)c1ccccc1NC(=O)COc1ccc2c(c1)OCO2	-37	9	-3	/	1	6	2	i
O=C(COC(=O)c1ccc(O)cc1O)Nc1cc(-c2ccccc2)nn1-c1ccccc1	16	16	/	-15	/	-5	-7	i
CCOc1cc2[nH]c(=S)n(CCC(=O)NCc3ccco3)c(=O)c2cc1OCC	3	0	-9	-20	-3	0	3	i
CCc1nnc(NC(=O)c2ccc(Cl)nc2)s1	-9	-4	5	-20	7	1	3	i
O=C(NCc1ccc(F)cc1)C1CC(=O)N(C2CCCCC2)C1 (stereo not given)	6	-3	0	-11	-1	-10	-1	i
Cc1ccc(NS(=O)(=O)c2ccc(C3CCCCC3)cc2)cc1	/	10	2	/	4	0	-14	i
O=C1NC2(CCCCCCC2)C(=O)N1Cc1ccc(F)cc1	0	-4	-8	-12	2	5	-1	/
CCCS(=O)(=O)n1nc(-c2ccc(OC)cc2OC)cc1N	18	-6	-1	-5	-4	0	6	i
COc1ccc(CCNC(=O)CCCCCn2c(SCC(N)=O)nc3cc4c(cc3c2=O)OCO4)cc1OC	17	8	12	-19	3	-11	-7	i
O=C(c1ccc(Cl)c(Cl)c1)N1CCC(=O)N(C(COCc2cccc(C(F)(F)F)c2)Cc2ccccc2)CC1 (stereo not given)	80*	23	-10	2	53	0	-3	i	eIF4H FP inh retest=0;PABP polyA inh retest=-2
COc1ccc(NC(=O)C2C(=O)NC3(C)CC2c2ccccc2O3)cc1 (stereo not given)	/	-13	-6	-12	-8	-3	0	i
CSc1ccccc1C(=O)C1CCCN(C(=O)CCc2cccnc2)C1 (stereo not given)	15	-8	1	-5	5	-6	0	i
COC(=O)c1ccccc1NC(=O)CSc1nncn1C	10	-12	1	-19	-11	1	-3	i
CC(C)C(=O)NC(=S)Nc1ccccc1C(=O)Nc1ccccc1	/	/	-4	/	-4	2	3	i
CCOC(=O)c1ccc(NC(=O)CSc2n[nH]c(-c3ccncc3)n2)cc1	/	1	13	/	25	6	-1	i
CCN(CC)S(=O)(=O)c1ccc(-c2nnc(SCC(=O)Nc3cc(OC)cc(OC)c3)o2)cc1	-18	-14	-12	-21	-1	-8	-4	i
CCOC(=O)c1c(-c2ccc(OC)cc2)csc1/N=C/C1=C(O)CCCC1=O	21	6	?	/	-1	-70	25	i
COc1ccc(C2=NCCn3cccc32)c(OC)c1	/	-5	5	-18	-2	-2	2	i
O=C(CCNS(=O)(=O)c1cccc2nonc12)Nc1ccc(Cl)cc1	3	7	-6	-5	6	-2	-1	i
O=[N+]([O-])c1ccc(SCCc2ccccn2)cc1	-11	-8	-2	/	16	0	-1	i
C=CC[C@H](CC(=O)NCCO)C(=O)N[C@H](COC(=O)[C@@H](CC=C)CC(=O)OC(C)(C)C)Cc1ccccc1	-53	-7	/	2	/	1	-3	/
CC(NC(=O)c1ccc(C23CC4CC(CC(C4)C2)C3)cc1)C(=O)O (stereo not given)	24	-4	13	/	6	3	6	i
O=c1cc(-c2ccccc2)c2cc(Cl)ccc2[nH]1	-12	-7	13	-2	-4	-2	1	i
CC1CCN(c2nncc3ccccc23)CC1	/	-8	-2	-10	4	-6	0	i
CC1CCCN(C(C(=O)NC2CCCCC2)c2cc3c(cc2[N+](=O)[O-])OCO3)C1 (stereo not given)	/	-4	36	/	-2	-10	-4	i
COCCNC(=O)CCCn1c(=O)c2cc(OC)c(OC)cc2n(CC(=O)Nc2ccc(F)cc2)c1=O	1	-8	-4	/	5	-3	0	i
O=[N+]([O-])c1cccc(-c2ccc(CN3CCN(c4ccccc4)CC3)o2)c1	4	-1	4	-7	21	2	-1	i
Cc1ccc(CC(NC(=O)c2ccccc2)C(=O)NC(CC(C)C)C(=O)O)cc1 (stereo not given)	-3	-5	-2	/	?	-6	-3	i
Cc1ccc2nc(Nc3ccc(Cl)cc3)c3nncn3c2c1	8	11	-13	-7	-13	4	-1	i
Cc1c(C(=O)OCC(=O)N2C(C)CCCC2C)oc2ccccc12 (stereo not given)	-28	/	-9	1	4	0	1	i
O=[N+]([O-])c1ncccc1OCc1ccc(Cl)c(Cl)c1	-6	15	-2	-4	1	1	4	i

These rows are one share of the data; the hit share may differ from the screen's.
